Screening results from PubChem.
TAR Tat displ: HIV-1 TAR-Tat binding disruption; HIV-1 TAR RNA, Tat peptide displacement FRET; active compounds read high; z-score (no concentration beside the values); 0.6% of 100,000 active;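 note: score is relative to mean and SD of negative controls; some compounds called inactive have numbers as strong as hits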
CDC25B-CDK2 inh: human CDC25B-CDK2/CyclinA binding inhibition; HTRF CDC25B-CDK2/CyclinA binding, anti-His/anti-Flag; active compounds read high; z-score (no concentration beside the values); 0.72% of 94,000 active;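 note: score is relative to mean and SD of negative controls; strong numbers were not always called active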
Numbers without * were called inactive; / = not tested or not shown.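 Rule for the calls: active = z-score from 3 up in half or more of its runs; inactive = the rest.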

Preview, 2 compounds:
smiles | TAR Tat displ | CDC25B-CDK2 inh
O=C(OCc1cc(=O)n2ccsc2n1)c1ccc(F)cc1 | 0.61 | /
CN(C)S(=O)(=O)c1ccc2c(c1)oc(=O)n2C | 0.2 | 1.9

Main list, from the first entry:
smiles | TAR Tat displ | CDC25B-CDK2 inh
O=C(OCc1cc(=O)n2ccsc2n1)c1ccc(F)cc1 | 0.61 | /
CN(C)S(=O)(=O)c1ccc2c(c1)oc(=O)n2C | 0.2 | 1.9
Cn1c(CN2CCN(Cc3ccccc3)CC2)nc2ccccc21 | 0.68 | 0.17
Cc1cccc(Cc2c(C)[nH]c3[nH]n(-c4ccccc4)c(=O)c3c2=O)c1 | 0.43 | -8.3
CCc1ccc(Nc2nc3ccccc3c3nncn23)cc1 | -0.49 | -2.9
CSC1=C(C#N)C(=O)NC(c2ccc3c(c2)OCO3)S1 (stereo not drawn) | / | -0.92
CCOC(=O)C1CCCCN1C(=O)CCc1c(C)nc2ncnn2c1C (stereo not drawn) | 1.4 | -1.1
CCOC(=O)NC(=O)CC(=O)NC(=O)OCC | / | -1.9
CCc1cc2c(cc3c(=O)n(CC(=O)NC4CCCc5ccccc54)nc(CC)n32)s1 (stereo not drawn) | -0.3 | -2.6
Cc1cc(C)c(NC(=O)Cn2nc(C)n3cccc3c2=O)c(C)c1 | 2.6 | -2.4
COc1cccc(/C=C/c2nc(C#N)c(N3CCN(Cc4ccccc4)CC3)o2)c1 | -1.3 | -1.2
CCCCn1c(=O)c2c(nc3n2CCN3c2ccc(OC)cc2)n(C)c1=O | -0.27 | -2.3
CC1(C(=O)NC2CCCC2)Cn2c(c(-n3cccc3)c3ccccc32)C(=O)N1Cc1cccs1 (stereo not drawn) | 1.7 | /
COc1cccc(CNc2nc3ccccc3c3nc(-c4ccccc4)nn23)c1 | -0.29 | -1.2
CCc1ccc2c(c1)NC(c1ccc(OC)cc1)=NC(c1ccncc1)=N2 | -0.51 | -0.43
O=C1CC(c2nc3ccccc3n2CCOc2ccccc2)CN1c1ccccc1 (stereo not drawn) | 1.9 | -1.3

4 of these compounds, set out differently.
SMILES: COc1cccc(/C=C/c2nc(C#N)c(N3CCN(Cc4ccccc4)CC3)o2)c1
  TAR Tat displ = -1.3	CDC25B-CDK2 inh = -1.2
SMILES: CCCCn1c(=O)c2c(nc3n2CCN3c2ccc(OC)cc2)n(C)c1=O
  TAR Tat displ = -0.27	CDC25B-CDK2 inh = -2.3
SMILES: CC1(C(=O)NC2CCCC2)Cn2c(c(-n3cccc3)c3ccccc32)C(=O)N1Cc1cccs1 (stereo not drawn)
  TAR Tat displ = 1.7	CDC25B-CDK2 inh = /
SMILES: COc1cccc(CNc2nc3ccccc3c3nc(-c4ccccc4)nn23)c1
  TAR Tat displ = -0.29	CDC25B-CDK2 inh = -1.2

Other compounds
smiles | TAR Tat displ | CDC25B-CDK2 inh
COc1ccc(N/C=C\C(=S)c2ccc(OC)cc2)cc1 | / | -0.86
CCCCCc1nnc(NC(=O)C(=O)c2c[nH]c3ccccc23)s1 | 2.9 | -3.3
Cc1ccc(C)c(N2CCN(c3cc(-n4nc(C)cc4C)ncn3)CC2)c1 | 0.87 | /
O=C(Nc1nnc(C23CC4CC(CC(C4)C2)C3)s1)c1cccs1 | / | -1.4
O=c1[nH]c2c(s1)C(c1ccco1)C1C3CCC(C3)C1S2 (stereo not drawn) | / | -0.58
Cc1nn(CC(=O)N2CCCC2)c(C)c1S(=O)(=O)N1CCCC(C(=O)N2CCCCC2)C1 (stereo not drawn) | -0.13 | /
Cn1ncc2c(Nc3cccc(Cl)c3)nc(NCCCN3CCOCC3)nc21 | 1.1 | /
O=C(CSc1nccn1Cc1ccco1)Nc1ccc2c(c1)OCCO2 | 1.1 | /
COC(=O)CN1C(=O)COc2ccc(S(=O)(=O)N3CCc4ccccc43)cc21 | 1.4 | /
CSc1ccc(C2CC(=O)Nc3c2c(C)nn3-c2nncc(-c3ccc(F)cc3)n2)cc1 (stereo not drawn) | 0.72 | -1.2
CC(C)(C)c1nnc2sc(SCC(=O)Nc3ccc4c(c3)OCCO4)nn2c1=O | 0.77 | /
COc1ccc(NS(=O)(=O)c2cc(/C=C/c3onc(C)c3[N+](=O)[O-])ccc2C)cc1Cl | 0.78 | /
O=C(Nc1cc(F)ccc1F)c1nc(-c2ccncc2)no1 | 0.11 | /
O=S(=O)(NCCc1csc2nc(-c3cccc(F)c3)nn12)c1cccs1 | 0.96 | /
O=c1c2[nH]c3ccccc3c2ncn1CCc1ccccc1 | 1 | -0.74
CCc1nnc(NC(=O)c2ccc3nsnc3c2)s1 | 0.57 | -0.87
CC(C)C(=O)Cn1c(NCCO)nc2ccccc21 | 3.1 | -0.68
CCOc1ccc(OCC)c(NC(=O)CSc2ccsc2[N+](=O)[O-])c1 | 5.5 | -2.2
COc1ccc(-c2nnc(SCCOc3cc(C)cc(C)c3)o2)cc1OC | 1.2 | 2.1
COc1ccc(NC(=O)c2cnn3c2NC(c2ccco2)CC3C(F)(F)F)cc1 (stereo not drawn) | -13 | /
O=S(=O)(NCc1cn2ccsc2n1)c1ccc(-c2ccccc2)cc1 | -0.57 | /
COCCOC(=O)c1c(C)oc2ccc(OCc3cccc(Br)c3)cc12 | -0.04 | -3.5
CC1CC(Nc2ccccc2)c2ccccc2N1C(=O)c1ccc(NS(C)(=O)=O)cc1 (stereo not drawn) | / | -0.24
CCCn1nnc(NCc2cccc3ccccc23)n1 | 1.5 | /
Cc1cccc2c1Oc1nc(-c3ccc(C(C)C)cc3)[nH]c(=O)c1C2 | -1 | -2.4
Clc1cccc(-c2nn3c(-c4ccncc4)nnc3s2)c1 | 2.1 | -2
COc1ccc(-c2ocnc2C(=O)N2CCN(Cc3cccnc3)CC2)cc1 | / | 1.2
O=C(CSc1ccc2nnc(-c3ccccc3)n2n1)NCc1ccco1 | / | 0.01
O=S(=O)(c1ccc2c(c1)Cc1cc(S(=O)(=O)N3CCCCCC3)ccc1-2)N1CCCCCC1 | / | -3.1
COc1ccc(-c2cc(=O)c3c(O)cc(O)c(-c4cc(-c5cc(=O)c6c(O)cc(O)cc6o5)ccc4OC)c3o2)cc1 | 0.92 | /
CCN1CCN(C(=O)c2ccc3c(=O)n4c(nc3c2)CCCCC4)CC1 | / | 0.3
CC1=NNc2nc3c(c(=O)n(C)c(=O)n3C)n2C1C (stereo not drawn) | / | -1.2
O=C(Nc1cc(-c2ccc(Cl)cc2)[nH]n1)C1Cc2ccccc2C1 | / | -1.8
CC1CCCC(NC(=O)CN2C(=O)COc3ccc(S(=O)(=O)N4CCCC4)cc32)C1C (stereo not drawn) | 2.1 | /
CCN(CC)c1ncnc2c1cnn2-c1cc(Cl)ccc1C | 0.2 | /
O=C1OC(c2ccc(F)cc2)/C(=C(/O)c2ccccc2)C1=O (stereo not drawn) | -0.44 | -2
COC(=O)CSc1nc(-c2ccc(F)cc2)nc2c1c(=O)n(C)c(=O)n2C | / | -2.7
CCC1CCCCN1S(=O)(=O)c1c(C)nc2sccn2c1=O (stereo not drawn) | 0.02 | /
O=C(Nc1ncc(Cc2cc(Cl)ccc2Cl)s1)c1ccccc1Br | / | -3
CCSC(SCC)[C@H](OC(C)=O)[C@@H](OC(C)=O)[C@@H](OC(C)=O)[C@@H](COC(C)=O)OC(C)=O | / | -1.7
CSc1ccc(CCNC(=O)NCc2noc3ccccc23)cc1 | -0.86 | /
CCCCCNc1nc(C)c2c(c1C#N)CC(C)(C)OC2 | 1.6 | -1.6
CC(C)Oc1ccccc1C1CC(=O)Nc2nc(SCc3ccccc3)[nH]c(=O)c21 (stereo not drawn) | 1 | -0.67
COC(=O)c1cccc(NC(=O)NC(=O)c2cccs2)c1 | / | -1.6
Cc1ccc(NS(=O)(=O)c2ccc(-c3ccc(=O)[nH]n3)o2)cc1C | -0.43 | /
C=CCn1c(NCc2ccc(C)o2)nc2ccccc21 | 3.5 | -2.4
CCOC(=O)c1c(C)[nH]c(C)c1S(=O)(=O)N1CCCC(C(=O)Nc2nccs2)C1 (stereo not drawn) | -1.2 | /
CCCCOC(=O)C1CCCC(C)N1 (stereo not drawn) | 2 | -1.8
CCN(Cc1cc(=O)n2nc(C)sc2n1)c1ccccc1 | 1.3 | /
COCCCNS(=O)(=O)c1ccc2c(c1)CC(C)N2C(=O)C1CCC1 (stereo not drawn) | -0.93 | /
COc1ccc(-c2c3c(nc4ncnn24)-c2ccccc2C3=O)cc1 | -0.97 | -1.7
CCN1C(=O)Cc2cc(NS(=O)(=O)c3ccc(F)cc3C)ccc21 | 0.53 | /
CCc1ccc(N2C(=O)c3sc4nnc(C)c(=O)n4c3C2=O)cc1 | / | -0.91
O=S(=O)(Nc1ccccc1C(F)(F)F)c1ccc(-c2ccccn2)s1 | / | -0.98
CCn1c2ccccc2n2c(SCc3ccccc3)nnc12 | 0.6 | 0.26
CC1CCC(NC(=O)C2CCC(CNc3c(N4CCCCC4)c(=O)c3=O)CC2)CC1 (stereo not drawn) | 3.3 | -1.4

Next section.
canonical_smiles | TAR Tat displ | CDC25B-CDK2 inh
COc1ccc(-c2nc(NCc3cccnc3)c3ccccc3n2)cc1 | -0.06 | /
COc1cc2ncc(S(=O)(=O)c3ccc(C)cc3)c(N3CCCC(C)C3)c2cc1OC (stereo not drawn) | -1.6 | 0.09
Cn1c(C(=O)Nc2cccc(F)c2)c(N2CCCC2=O)c2cc(F)ccc21 | 0.85 | /
COc1ccc(N2C(=O)c3c(c4ccccc4n3C)C2c2ccc(O)c(OC)c2)cc1 (stereo not drawn) | / | -0.83
c1csc(-c2csc(Cc3nc(-c4cccs4)cs3)n2)c1 | -4.8 | -1.2
O=C1CC(c2ccc(F)cc2F)c2c(nc(SCc3ccccc3Cl)[nH]c2=O)N1 (stereo not drawn) | 1.5 | 1.4
CCCCn1c(C)c(C)c2c1ncn1nc(CSc3nc4ccccc4o3)nc21 | 0.42 | -1.2
COC(=O)C1=C(O)/C(=C\c2ccc(CNC(=O)C(=O)Nc3cc(Cl)cc(Cl)c3)o2)N=C1C | / | -1.7
CCN(c1ccccc1)c1ncnc2c1cnn2-c1cccc(Cl)c1 | 0.57 | /
Cc1csc2ncc(C(=O)Nc3ccccc3)c(=O)n12 | / | -0.89
COc1ccc2nc(NC(=O)c3nn(-c4ccc(Cl)cc4)ccc3=O)sc2c1 | 0.65 | -1.2
O=C(Nc1ccc(F)cc1Cl)C1CCN(c2ccccc2)C1=O (stereo not drawn) | -0.88 | /
Cc1cc(NC(=O)Nc2ccc3c(ccn3C)c2)sn1 | / | -2.4
O=c1c2ccccc2oc2cc(O)ccc12 | / | 0.59
Cc1ccc2nc(N3CCN(C)CC3)c3nnnn3c2c1 | 1.7 | -2
Cn1c(NC(=O)COc2ccc3ccccc3c2)cc(=O)n(C)c1=O | 2.8 | /
COCCNc1oc(/C=C/c2ccc(F)cc2)nc1C#N | 1.9 | -1.7
CCOC(=O)c1c(NC(=O)CCC(=O)O)sc2c1CCCCCC2 | / | 0.99
CCOC(=O)c1ccc(NC(=O)CN2C(=O)c3cccc4cccc2c34)cc1 | / | -1
CCC(=O)N1c2ccc(S(=O)(=O)NC3CCCCC3)cc2CC1C (stereo not drawn) | 0.62 | /
O=C(NCCN1CCCCC1)C1CCCN1c1nnc(N2CCCC2=O)s1 (stereo not drawn) | 1.5 | /
CS(=O)(=O)c1ccc2nc(NC(=O)Cc3ccc(Br)cc3)sc2c1 | 1.9 | -21
CCOc1ccc(NC(=O)Cn2nc3ccc(C(=O)Nc4ccc(OC)cc4)cn3c2=O)cc1 | 0.16 | -0.06
CN1CCN(C(=O)C2CCN(S(=O)(=O)c3ccc4[nH]c5c(c4c3)CCCCC5)CC2)CC1 | 0.9 | /

Single records, from the list above:
Results for `Cc1cc(NC(=O)Nc2ccc3c(ccn3C)c2)sn1` → TAR Tat displ = /; CDC25B-CDK2 inh = -2.4
Results for `Cc1ccc2nc(N3CCN(C)CC3)c3nnnn3c2c1` → TAR Tat displ = 1.7; CDC25B-CDK2 inh = -2

The results go on.
canonical_smiles | TAR Tat displ | CDC25B-CDK2 inh
O=S(=O)(c1cnc[nH]1)N1CCN(C(c2ccc(F)cc2)c2ccc(F)cc2)CC1 | 1.3 | /
COC(=O)C1=C(O)CSC1=Nc1ccc(F)cc1 | 0.89 | 1.2
CC(C)Cc1nnc(NC(=O)C2c3ccccc3Oc3ccccc32)s1 | 0.06 | 0.43
Cc1c(C(=O)Nc2ccccc2Br)sc2ncnc(N3CCCC3)c12 | 0.53 | /
COCCNC(=O)Cn1nnc2sc3c(c2c1=O)CCC(C)C3 (stereo not drawn) | 0.97 | -1.3
COc1cc(C2Nc3ccc(C(=O)c4ccccc4)cc3NC3=C2C(=O)CC(C)(C)C3)ccc1O (stereo not drawn) | -7.8 | -1.9
CC1CCCCC1NS(=O)(=O)c1cc(Br)cnc1N (stereo not drawn) | 1.8 | -1.6
CCC(COc1nnnc2ccccc12)NC(=O)Cn1c(=O)cc(C)c2ccccc21 (stereo not drawn) | 1.2 | -1.6
O=C(O)CCCC(=O)N1N=C(c2cccs2)CC1c1cn(-c2ccccc2)nc1-c1ccccc1 (stereo not drawn) | 1.2 | -0.74
Cc1ccc(C)c(C2CC(=O)Nc3cc4c(cc32)OCCO4)c1 (stereo not drawn) | / | -2.1
O=C(COc1ccccc1F)OCc1cc(=O)n2nc(-c3cccs3)sc2n1 | 0.05 | /
CCCC1N=C2c3ccccc3N=C(SCC(=O)NC3CCCCC3)N2C1=O (stereo not drawn) | 2.2 | /
COc1ccc(CCN2CC(C(=O)O)CC2=O)cc1OC (stereo not drawn) | / | -1.2
O=C(CS(=O)(=O)c1ccc2c(c1)S(=O)(=O)N=CN2)NC1CCCC1 | 1.4 | /
COc1ccc(Cc2c(Cl)nc(SC)nc2Cl)cc1 | -0.26 | -0.4
Cc1nnc2c(NCC(C)c3ccccc3)nc3ccccc3n12 (stereo not drawn) | 0.9 | -0.75
